# Cruzain inh noDet: qHTS Assay for Promiscuous and Specific Inhibitors of Cruzain (without detergent). purified cruzain, Z-FR-AMC fluorescence, no detergent. AID 1476, 2009. actives 2.3% (n = 200,000). Potency, µM, for inactives: max response, negative = inhibition, most hits filed as inhibitors. Cruzipain (Trypanosoma cruzi), P25779;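 note: plate controls were enzyme without inhibitor for no effect and buffer without enzyme for full effect; nearly all actives have a fitted effect of over 40% in size; top concentration of the series not given in the record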
# Target sequence (P25779 123-467 limits assumed): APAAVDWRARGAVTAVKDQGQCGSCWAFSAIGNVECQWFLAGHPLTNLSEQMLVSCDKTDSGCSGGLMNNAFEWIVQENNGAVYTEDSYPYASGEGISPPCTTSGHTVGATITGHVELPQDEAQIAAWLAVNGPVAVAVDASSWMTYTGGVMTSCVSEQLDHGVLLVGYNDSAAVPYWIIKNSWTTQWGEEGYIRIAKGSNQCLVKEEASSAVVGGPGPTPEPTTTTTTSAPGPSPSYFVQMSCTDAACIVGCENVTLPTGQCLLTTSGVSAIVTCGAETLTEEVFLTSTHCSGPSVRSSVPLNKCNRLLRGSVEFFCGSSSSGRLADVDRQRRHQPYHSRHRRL
#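 Purified cruzain at 1.5 nM, pre-incubated 15 min with compound at room temperature in 100 mM sodium acetate pH 5.5, 5 mM DTT, 0.00005% Triton X-100. Reaction started with 2 uM Z-FR-AMC; AMC fluorescence increase over 60 s gives rate.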
# SARS PLpro yeast: qHTS of Yeast-based Assay for SARS-CoV PLP; Potency, µM (top dose mostly 32.9 µM), without a hit: at the top dose activity, positive = growth rescue; AID 485353, 2010; actives 0.19% (n = 330,000); S. cerevisiae expressing SARS-CoV PLpro, growth rescue; control for the full effect not named in the record; active means well fitted rising curve with a large enough effect; inconclusive means small, poorly fitted or top-dose-only effect; inactive means no such curve, though single readings can be large or run the other way; note: 0% is about no effect; nearly all actives have a fitted effect of over 55% in size; growth read by luminescence after 48 h
# RE007 growth inh: qHTS Assay for Inhibitors of the HIV-1 protein Vpr. S. pombe RE007 Vpr strain, BacTiter-Glo ATP luminescence, 24 h; control for the full effect not named in the record. Potency, µM (series often up to 92.2 µM), for the others: at the top dose activity change, negative = less growth. actives 0.21% (n = 360,000). AID 651644, 2012; active = well fitted falling curve with a large enough effect; inconclusive = small, poorly fitted or top-dose-only effect; inactive = no such curve, though single readings can be large or run the other way;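 note: % is set by controls: 0 for no effect and ±100 for the full control effect; nearly all actives have a fitted effect of over 50% in size; the assay follows cell death caused by Vpr and the record does not say whether a fall means rescue or toxicity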
#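 Fission yeast RE007 carrying one integrated HIV-1 vpr copy, seeded at OD 0.01 in PMG+AL medium with 23 nL pinned compound. Grown 24 h at 30 degrees; viability read by BacTiter-Glo luminescence after 5 min.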
# MARV entry inh: qHTS for inhibitors of binding or entry into cells for Marburg Virus; Marburg virus pseudotyped entry inhibition, cell reporter; control for the full effect not named in the record; about a third of the inactives were read at about 46 µM; Potency, µM (doses to about 37.8 µM), inactives show at the highest dose activity change, negative = inhibition, actives largely listed as inhibitors; actives 1.8% (n = 300,000); AID 540276, 2011; active = well fitted inhibition curve with a large enough effect; inconclusive = small, poorly fitted or top-dose-only effect, or effect the other way; inactive = flat fitted curve, though single readings scatter; tested in HEK293 cells; about a fifth of its hits are not listed in these tables; note: % is set by controls: 0 for no effect and ±100 for the full control effect; luciferase read-out
# NS1 inh: qHTS Assay for Inhibitors of Influenza NS1 Protein Function; S. cerevisiae slowed by influenza A NS1, growth recovery by OD600; actives 0.4% (n = 270,000); Potency, µM (series often up to 46.1 µM), inactives show at the highest dose activity, positive = more growth; AID 2326, 2010; active means well fitted rising curve with a large enough effect; inconclusive means small, poorly fitted or top-dose-only effect; inactive means no such curve, though single readings can be large or run the other way; note: nearly all actives have a fitted effect of over 50% in size
#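 OD600 was taken as the measure of yeast growth restored by compound in an NS1-expressing S. cerevisiae strain. Cells had been washed out of glucose medium and diluted 1:100 into galactose -URA medium, pH 6.0.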
# 2A StopGo: High Throughput Screening for Foot and Mouth Disease Virus Antivirals | human cells with a luciferase reporter of 2A StopGo recoding; control for the full effect not named in the record | Potency, µM (highest dose often 57.9 µM), without a hit: top-dose signal change, negative = less light | actives 1.2% (n = 410,000) | AID 1159524, 2015; active = well fitted falling curve with a large enough effect; inconclusive = small, poorly fitted or top-dose-only effect; inactive = no such curve, though single readings can be large or run the other way; tested in HEK293T cells; note: % is set by controls: 0 for no effect and ±100 for the full control effect; nearly all actives have a fitted effect of over 45% in size; luciferase light after 4 h
# LASV entry inh: qHTS for Inhibitors of binding or entry into cells for Lassa Virus | actives 1.2% (n = 300,000) | Lassa virus pseudotype entry inhibition, cell reporter; control for the full effect not named in the record | Potency, µM (titrated, usually from 37.9 µM), inactives show at the top dose activity change, negative = inhibition, most hits filed as inhibitors; active means well fitted inhibition curve with a large enough effect; inconclusive means small, poorly fitted or top-dose-only effect, or effect the other way; inactive means flat fitted curve, though single readings scatter; tested in HEK293 cells; note: % is set by controls: 0 for no effect and ±100 for the full control effect; nearly all actives have a fitted effect of over 50% in size; luciferase read-out
# Cruzain inh Det: qHTS Assay for Promiscuous and Specific Inhibitors of Cruzain (with detergent); Cruzipain (Trypanosoma cruzi), P25779; purified cruzain, Z-FR-AMC fluorescence, 0.01% Triton; Potency, µM, without a hit: max response, negative = inhibition, actives largely listed as inhibitors; actives 0.43% (n = 200,000); AID 1478, 2009;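 note: plate controls were neutral wells for no effect and buffer without enzyme for full effect; nearly all actives have a fitted effect of over 40% in size; top concentration of the series not given in the record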
#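 In this qHTS format, compounds are incubated with 1.5 nM cruzain for 15 min at room temperature before 2 uM Z-FR-AMC is added. Release of AMC is followed at 360/450 nm, and progress is taken as the 60 s fluorescence difference.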
# Numbers without * were called inactive; u = inconclusive; x = not tested or not shown; & = joins results of further samples; [ ] = remark or other dose. Unless noted, calls come from the whole dose curve; as a rule, active = well fitted curve in the direction sought with a large enough effect; inconclusive = small, poorly fitted or top-dose-only effect, or another doubt; inactive = no such curve, though single readings can be large; an effect the other way counts as inactive or inconclusive. Potency is the fitted concentration of half-maximal effect.
SMILES,Cruzain inh noDet,SARS PLpro yeast,RE007 growth inh,MARV entry inh,NS1 inh,2A StopGo,LASV entry inh,Cruzain inh Det
CC(C)(C)NC(=S)NNC(=O)c1ccncc1,-10%,9%,1%,u,u,13%,u,-0.5%
O=C(NCC(=O)N1CCN(c2ccccc2O)CC1)c1ccccc1,x,1%,-18%,u,1%,0%,12%[46.1 µM],x
Cc1nc(C/C(=N\Nc2ccccc2)c2ccc(O)cc2O)cs1,x,-21%,u,x,1%,8%,x,x
COc1ccc(/C(O)=C2/C(=O)C(=O)N(c3ncccn3)C2c2ccc(OC)c(OC)c2)cc1 (stereo not drawn),-14%,6%,-1%,4%&22%,-1%[9.22 µM],-1%,18%,-0.7%
Cc1ccc(-c2nnc(Nc3ccc(O)cc3)c3ccccc23)cc1S(=O)(=O)N1CCN(C)CC1,-12%,x,x,-12%[46.1 µM],x,-12%,2%[46.1 µM],-10%
Cc1ccc(CS(=O)(=O)c2cn(CC(=O)N3CCOCC3)c3ccccc23)cc1,x,5%,7%,x,0%,36%,x,x
Nc1nc(NCCOCCO)nc(NC2CCCCC2)c1[N+](=O)[O-],x,-2%,-4%,-6%[46.1 µM],-6%,-26%,-7%[46.1 µM],x
COc1ccc(S(=O)(=O)NC2CC(=O)N(c3ccccc3)C2)cc1C (stereo not drawn),x,-2%,5%,3%,x,-7%,7%,x
O=C(CSc1nnc2n(C3CCCC3)c(=O)c3ccccc3n12)N1CCCCCC1,-5%,1%,-4%,-4%,6%,u,-1%,-1.3%
O=C(/C=C/c1ccccc1)NC(N1CCOCC1)C(Cl)(Cl)Cl (stereo not drawn),x,1%,-3%,-7%[46.1 µM],-5%,-6%,-3%,x
C(=N\Nc1nn2cnnc2c2ccccc12)/c1ccco1,x,-1%,1%,12%[46.1 µM],x,-1%,2%,x
Cc1oc(C(C)(C)C)cc1C(=O)Nc1ccc2c(c1)OCO2,x,-2%,19%,u,-36%,0%,-17%,x
O=C1OC(c2ccc(Cl)cc2)/C(=C(/O)c2ccccc2)C1=O (stereo not drawn),-4%,-7%,-12%,6%,15%,39%[activator],7%,-3.6%
CCN(CC)S(=O)(=O)c1ccc(N2CCOCC2)c(NC(=O)c2cc(=O)[nH]c3ccccc23)c1,x,-1%,-22%,u,-15%,-9%,8%,x
C/C(=N\NC(=O)c1ccc(NS(=O)(=O)c2cccs2)cc1)c1cccs1,x,-1%,22%,3%[46.1 µM],x,21%,18%,x
CC12CS(=O)(=O)CC1SC(=S)N2Cc1ccccc1 (stereo not drawn),x,-1%,11%,-17%&-17%[46.1 µM],x,-6%,-16%,x
Cc1cc(Nc2ccccc2Cl)n2nnnc2n1,6%,9%,2%,u,-5%,-4%,11%,3.2%
CC(=O)N1c2c(cc(Br)cc2S(=O)(=O)Nc2c(C)n(C)n(-c3ccccc3)c2=O)CC1C (stereo not drawn),x,2%,7%,u,x,19%,10%,x
CSc1nc(NCc2ccco2)c2c3c(sc2n1)CN(C)CC3,-5%,0%,x,x,3%,x,x,0.8%
CCOc1ccc(S(=O)(=O)Nc2nc3ccc(OC)cc3s2)cc1,-5%,5%,-7%,-2%[46.1 µM],0%,70%[activator],-1%,-6.5%
Cc1cc(OCC(=O)N(C)C2CCCCC2)ccc1Cl,x,-3%,4%,u,x,-4%,u,x
CCOc1ccc(OCCNC(=O)c2cc(C3CC3)nc3c2cnn3C(C)C)cc1,x,-3%,12%,u,x,u,-28%,x
COc1cc(OC)cc(C(=O)N[C@H](C(=O)OCn2nnc3ccccc3c2=O)C(C)C)c1,x,0%,-5%,u,-11%,4%,2%,x
COc1cc(OC)nc(NC(=O)CSc2nc3ccccc3o2)n1,u,-2%,0%,23%,7%,15%,5%,8.8%
O=C(CCn1nnc2ccccc2c1=O)NCC1CCC(C(=O)O)CC1 (stereo not drawn),-7%,4%,6%,0%,8%,-4%,-6%,8.0%
CCCNC(=S)N1CCC(C(=O)c2ccc3c(c2)OCCO3)CC1,x,3%,-5%,u,x,11%,-12%[46.1 µM],x
COc1cc(/C=C2\SC(=Nc3ccccc3)N(Cc3ccco3)C2=O)ccc1OC(C)C(=O)O (stereo not drawn),u,8%,1%,-9%,u,u,7%,u
CNS(=O)(=O)c1cn(CC(=O)N2CCN(c3ccccc3F)CC2)cc1S(=O)(=O)NC,0%,x,x,x,x,18%,17%[46.1 µM],-2.0%
CCN(CC(=O)Nc1sc2c(c1C#N)CCC(C)C2)CC(=O)NC1CCS(=O)(=O)C1 (stereo not drawn),x,0%,6%,21%[46.1 µM],x,9%,10%[46.1 µM],x
COC(=O)c1n[nH]c2ccccc12,14%,2%,20%,0%&0%[46.1 µM],-13%,-9%,17%,-3.4%
Cc1[nH]c2ccccc2c1C(=O)C(=O)N1CCN(c2ccccc2Cl)CC1,x,-9%,-6%,u,-16%,-11%,-23%[46.1 µM],x
Nc1nc(N)nc(COc2ccccc2)n1,x,-1%,-15%,u,x,11%,-8%,x
CC(=O)/C(C#N)=C1\NC(=O)C(Cc2ccccc2)S1 (stereo not drawn),4%,-1%,6%,2.5µM*,-56%,60%[activator],u,-9.7%
Cc1ccccc1CN1CCc2cc([N+](=O)[O-])ccc21,x,-16%,-3%,u,-4%,-3%,-24%[46.1 µM],x
CC(=O)Nc1ccc(S(=O)(=O)N[C@@H](C)C(=O)OCc2cc([N+](=O)[O-])cc3c2OCOC3)cc1,x,2%,-4%,x,-2%,-2%,x,x
COC(=O)COc1ccc(C(=O)Cn2c(NCCCO)nc3ccccc32)cc1,x,x,-17%,6%,x,-8%,u,x
CS(=O)(=O)c1ccc(-c2nnn(CC(=O)N3CCCCC3)n2)cc1,x,2%,-7%,6%[46.1 µM],5%,5%,21%[46.1 µM],x
CN1CCN(c2ncnc3c2cnn3C)CC1,x,0%,0%,x,-3%,-2%,x,x
COc1ccc(S(=O)(=O)NCc2cccn2Cc2cc(C)ccc2C)cc1OC,12%,x,x,x,x,13%,-19%[46.1 µM],-9.1%
O=C(/C=C/c1ccc(Cl)cc1)Nn1c(-c2cccs2)nc2ccccc2c1=O,u,23%,-8%,2%,4%,-26%,-1%,-2.6%
Cc1ccccc1C(=O)N1CCC(C(N)=O)CC1,-13%,8%,2%,21%,4%,x,-1%,4.2%
O=c1[nH]c(-c2ccccn2)cc2ccccc12,-4%,-48%,u,u,-17%,26%,u,-9.3%
CCC(=O)N(C)CCc1cc2c(c(OC)c1/C=N/Nc1ccc(C(=O)O)cc1)OCO2,x,-1%,2%,u,8%,-16%,-7%,x
CCN(Cc1cccs1)C(=O)c1cccc(S(=O)(=O)N2CCN(C)CC2)c1,x,-7%,-1%,-3%,x,12%,u,x
CCC(C)NC(=O)Cn1cnc([N+](=O)[O-])c1 (stereo not drawn),x,0%,16%,-7%,6%,-25%,-6%,x
COc1ccc(CCNC(=O)CCCCn2c(=O)c3ccccc3n(Cc3ccc(Cl)cc3)c2=O)cc1OC,u,x,x,u,x,-27%,-28%[46.1 µM],-4.2%
O=C(NCc1ccccc1)c1cc2ccc(O)cc2oc1=O,x,-20%,u,3%,-77%,31%[activator],-1%,x
CCOc1ccc(NC(=O)C2=C(C)NC(=S)NC2c2ccc(O)c(OC)c2)cc1 (stereo not drawn),-7%,12%,-27%,-31%,2%,0%,u,-4.4%
Cc1oc(-c2cccc(Cl)c2)nc1CN1CCCC(C(=O)NCCc2ccc(Cl)cc2)C1 (stereo not drawn),2%,x,x,6%[46.1 µM],x,u,-8%[46.1 µM],1.8%
COc1cc(C)c(CN2CCC(n3nccc3NC(=O)C3CC3)CC2)cc1C,x,9%,21%,u,-13%,-17%,u,x
CCN(CC)CCNC(=O)c1ccc(NC(=O)c2ccc(C(=O)c3ccccc3)cc2)cc1,x,0%,-4%,u,x,-3%,u,x
CC(C)CCNc1nc(N)c([N+](=O)[O-])c(NC2CCCCC2)n1,x,2%,-15%,x,0%,-19%,x,x
Cc1cc(C)c(S(=O)(=O)NCc2csc(C)n2)c(C)c1,x,0%,6%,x,2%,18%,x,x
Cc1nnc(SC(C)C(=O)Nc2ncc(Cl)cc2Cl)n1Cc1ccccc1 (stereo not drawn),-1%,2%,-21%,15%,9%,-8%,5%,3.3%
O=C(NCc1ccccc1F)C(=O)NCC1CCCN1S(=O)(=O)c1cccs1 (stereo not drawn),x,5%,-7%,0%,x,-8%,3%,x
Cc1ccc(C(C)C)c(OCCNC(=O)c2cncc(Br)c2)c1,0%,-11%,10%,u,-104%,u,u,3.7%
C=CCn1c(=O)c2c(nc3n2CCN3c2cccc(Cl)c2C)n(C)c1=O,6%,7%,4%,-30%,-31%,u,3%,5.1%
CCCNC(=O)c1c(NC(=O)c2ccccc2F)sc2c1CCCCC2,6%,x,x,10%[46.1 µM],x,3%,-16%[46.1 µM],-1.2%
CC(C)Oc1ccccc1/C=N/NC(=O)C1CC1,x,x,16%,15%[46.1 µM],x,14%,-9%,x
Cc1ccccc1CS(=O)(=O)Cc1ccc(C(=O)NCCCN2CCOCC2)o1,-8%,-1%,-7%,17%,-4%,1%,-2%,-5.4%
O=C(CNc1ccccc1)N/N=C/c1ccc([N+](=O)[O-])o1,0%,-1%,-15%,18µM*,-4%,-4%,u,-0.4%
COc1ccc(CCNC(=O)CS(=O)Cc2nc(-c3ccccc3F)oc2C)cc1OC (stereo not drawn),20%,-3%,-6%,22%&11%[46.1 µM],11%,-13%&-2%,-7%&-5%[46.1 µM],-2.3%
CCN1CCN(c2nn3c(=O)c4ccccc4nc3c3ccccc23)CC1,-10%,2%,-4%,u,6%,0%,11%,-3.1%

# Compound activity from PubChem BioAssay.

# This is a random part of the collection; 4.6% or so of the library scored in one or more.
